HSV augment: enhancers of HSV replication in host cells, fold increase, host cell viability. maximum fold increase. HSV replication augmentation in cells. 0.005% of 220,000 active;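 active = peak rise of 1.5-fold or more in the series; tested in PC3 cells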;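 also: first round at 10 µM; read as green reporter fluorescence; hits show the peak of a series up to 25 µM; 1 = signal of infected wells without compound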
GALR2 ag: GALR2 receptor agonists, primary screen, cell-based; Galanin receptor type 2 (Homo sapiens), O43603; GALR2-expressing cells, agonist activation read-out; activation, %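 (tested at 5 µM)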; 0.48% of 140,000 active; AID 803, 2007;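 active = above mean plus 3 SD of all compounds, about 5% in these data, not always enough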;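 also: 0% = vehicle buffer wells and 100% = reference agonist at full effect; tested in CHO reporter cells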
Target sequence (O43603 whole entry, looked up): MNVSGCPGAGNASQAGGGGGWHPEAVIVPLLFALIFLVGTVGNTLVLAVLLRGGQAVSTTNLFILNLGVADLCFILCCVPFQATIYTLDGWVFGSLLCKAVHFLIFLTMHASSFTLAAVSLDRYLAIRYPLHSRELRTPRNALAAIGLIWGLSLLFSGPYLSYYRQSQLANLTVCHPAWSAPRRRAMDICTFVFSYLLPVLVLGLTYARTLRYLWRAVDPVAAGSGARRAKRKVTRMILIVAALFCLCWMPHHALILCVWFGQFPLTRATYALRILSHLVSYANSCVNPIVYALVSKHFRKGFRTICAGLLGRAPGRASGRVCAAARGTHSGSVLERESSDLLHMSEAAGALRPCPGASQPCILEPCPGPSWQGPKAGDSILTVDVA
INS promoter inh: inhibitors of insulin promoter-driven GFP, primary screen, imaging, TRM-6 cells (human fetal islet line), eGFP reporter, cell count; inhibition, % at 2 µM; reporter expression induced with tamoxifen; 0.9% of 130,000 active;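 active = inhibition above the mean plus 3 SD, with well images judged a real hit on visual review, cut at about 60% in these data, passing the limit was not always enough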
PKD1 kinase inh: inhibitors of human PKD1 kinase, biochemical, fluorescence polarization; Serine/threonine-protein kinase D1 (Homo sapiens), Q15139; PKD1 kinase fluorescence polarization assay; inhibition, %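 (about 10 µM by stock and volumes)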; 0.056% of 200,000 active;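 active = inhibition of 50% or more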;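 also: controls were vehicle for no effect and a reference inhibitor for full effect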
RGS16-Gao HTS: modulators of RGS16 binding to Galphao, primary screen, biochemical, human proteins, multiplexed bead flow cytometry. binding response (% of control), % at 10 µM. bead-based flow cytometry RGS16-Galphao binding, fluorescence; actives lie on both sides. AID 1441, 2008. 0.38% of 220,000 active. Regulator of G-protein signaling 16 (Homo sapiens) + Guanine nucleotide-binding protein …;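 active = below 25% or above 175%, edge rows of some plates excepted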;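 also: Galphao activated by GDP with aluminum fluoride before binding; 100% = wells without compound and 0% = beads without RGS; some results beyond the cut were filed as inactive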
Target sequence (O15492 whole entry, looked up): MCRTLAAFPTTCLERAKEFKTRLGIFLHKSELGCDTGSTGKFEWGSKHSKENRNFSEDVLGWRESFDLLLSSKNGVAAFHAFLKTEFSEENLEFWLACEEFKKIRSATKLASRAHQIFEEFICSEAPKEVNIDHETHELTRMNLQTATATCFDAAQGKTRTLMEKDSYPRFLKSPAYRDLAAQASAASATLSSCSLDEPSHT
Target sequence (P09471 whole entry, looked up): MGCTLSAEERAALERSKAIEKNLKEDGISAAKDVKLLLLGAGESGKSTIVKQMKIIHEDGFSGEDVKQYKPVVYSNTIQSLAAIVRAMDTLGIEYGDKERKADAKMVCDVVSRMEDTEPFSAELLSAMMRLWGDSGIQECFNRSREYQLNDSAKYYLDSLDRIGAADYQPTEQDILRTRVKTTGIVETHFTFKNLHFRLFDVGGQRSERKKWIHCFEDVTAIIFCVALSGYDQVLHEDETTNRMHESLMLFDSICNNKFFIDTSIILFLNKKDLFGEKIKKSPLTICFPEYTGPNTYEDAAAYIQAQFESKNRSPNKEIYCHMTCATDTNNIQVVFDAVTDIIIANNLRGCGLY
INS promoter inh cell count: also measured in INS promoter inh; calls as there; normalized cell count, %; measured here: cell count, toxicity; reference of the scale not given here;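 cells exposed to compound for 48 h; stained nuclei by imaging scaled within each plate; lower means fewer cells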
HSV augment primary fold: second read-out of HSV augment, no call of its own (marks repeat the call); fold increase; compound at 10 µM; measured here: primary screen fold increase 10 uM; tested in PC3 cells;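 GFP signal in the first replicate; 1 = infected wells without compound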
The depositor's hits bear a star; i = inactive; / = not tested or not shown.

Below each SMILES: HSV augment, HSV augment primary fold, GALR2 ag, INS promoter inh, INS promoter inh cell count, PKD1 kinase inh, RGS16-Gao HTS
C[C@]12C=CC(=O)C=C1CC[C@@H]1[C@@H]2[C@@H](O)C[C@@]2(C)[C@H]1CC[C@]2(O)C(=O)COC(=O)CCC(=O)O
→ i, 0.94, 0.8, -62, 146, -11, 101
CCOCC(=O)Nc1cc(C(=O)OC)ccc1C(=O)OC
→ i, 0.99, -0.3, -11, 106, 3, 123
O=C(O)CCc1nc(-c2cccs2)no1
→ /, /, -3.2, /, /, 5, 100
O=c1c2ccccc2nc(COc2ccccc2)n1/N=C/c1ccco1
→ i, 0.96, -1.2, /, /, -15, 102
O=C(COC(=O)[C@@H]1CC(O)CN1S(=O)(=O)c1ccc([N+](=O)[O-])cc1)NC12CC3CC(CC(C3)C1)C2 (some centres not stated)
→ i, 1.1, -1.0, /, /, -8, 103
O=C(O)CN1C2=NCCCN2c2ccccc21
→ i, 1, /, /, /, 1, 102
Cc1cccc2nc(CSc3ncccc3C(=O)O)cn12
→ i, 1, /, /, /, -1, 101
O=C(CN1CCN(c2ccccn2)CC1)NC(=O)NC1CCCCC1
→ i, 0.98, -0.4, /, /, 2, 99
CC(=O)C1=C(C)NC(SCC(=O)c2ccccc2)=C(C#N)C1CC(C)C (configuration not stated)
→ i, 0.97, -0.2, /, /, 6, 97
Cc1cccc(C)c1OCC(=O)Nc1ccc(NC(=O)c2ccco2)cc1
→ i, 1, /, /, /, -4, 104
Cc1nn(CCO)c(N)c1C1(O)C(=O)Nc2c(Cl)cc(Cl)cc21 (configuration not stated)
→ i, 1, /, -21, 86, -8, 102
CC(=O)N1CCC2(CC1)C(C#N)=C(N)OC1=C2C(=O)CC(C)(C)C1
→ i, 0.97, -1.8, 11, 90, -7, 103
O=C(Oc1ccc2ccc(=O)oc2c1)c1cccs1
→ /, /, 3.6, -50, 99, 4, 97
CCCc1c(C(=O)Nc2cc(C)on2)cnn1-c1ccccc1
→ i, 0.84, /, /, /, /, 104
Cc1nc2ccccc2nc1OCC(=O)Nc1ccc(F)cc1
→ i, 0.94, /, 0, 117, -3, 100
COc1ccc(NC(=O)Nc2cc3oc4ccccc4c3cc2OC)cc1
→ /, /, -1.4, /, /, -11, 102
Cc1ccccc1C1CC(c2cccs2)Nc2nnnn21 (configuration not stated)
→ i, 0.94, /, /, /, -1, 99
Cc1ccc(Nc2cnn(C34CC5CC(CC(CC(=O)O)(C5)C3)C4)c(=O)c2Cl)c(Cl)c1
→ i, 1, /, -11, 132, -1, 101
CCc1ccc(OCC(=O)NNC(=O)c2nn(CC)c(=O)c3ccccc23)cc1
→ i, 0.91, /, /, /, -2, 98
O=C(N[C@@H](Cc1ccc(O)cc1)C(=O)O)c1ccc(C(F)(F)F)cc1
→ i, 0.94, /, /, /, -1, 123
CC(C)(C)c1csc(NC(=O)c2ccc(Cl)s2)n1
→ i, 1, -0.4, -28, 149, -8, 83
Cc1cccc(N=C2NC(=O)/C(=C/c3cccs3)S2)c1
→ i, 0.93, 0.1, 0, 117, 4, 99
COc1ccc(S(=O)(=O)N(C)C)cc1NCC(=O)Nc1ccc(Br)c(C)c1
→ i, 0.94, /, 33, 64, 3, 103
CCOc1ccc(-n2cnnn2)cc1S(=O)(=O)N1CCC(C)CC1C (configuration not stated)
→ i, 0.84, /, /, /, -7, 99
CC1CN(C2CCN(S(=O)(=O)Cc3ccccc3)CC2)CC(C)O1 (configuration not stated)
→ i, 0.89, 9.5, /, /, -8, 96
CCn1c(=O)c2cc(C(=O)Nc3ccc(OC)cc3OC)sc2c2ccccc21
→ i, 1.1, /, /, /, /, 72
Cc1cc(Cl)ccc1OC(C)C(=O)Nc1ccccc1N1CCOCC1 (configuration not stated)
→ /, /, 1.5, /, /, -6, 101
O=C(O)c1ccccc1-c1ccccc1C(=O)Nc1nccs1
→ i, 0.77, /, -25, 108, -3, 107
O=C(COc1cccnc1[N+](=O)[O-])Nc1cc(S(=O)(=O)N2CCCCC2)ccc1Cl
→ i, 1.1, /, /, /, /, 99
O=C(NCC(=O)N(c1cccnc1)C(C(=O)NC1CCCC1)c1cccs1)c1ccco1 (configuration not stated)
→ i, 0.96, /, /, /, 0, 89

Ordered by value in RGS16-Gao HTS (highest first): three of the compounds above.
structure | HSV augment primary fold | GALR2 ag | PKD1 kinase inh | RGS16-Gao HTS
Cc1nn(CCO)c(N)c1C1(O)C(=O)Nc2c(Cl)cc(Cl)cc21 (configuration not stated) | 1 | / | -8 | 102
Cc1cc(Cl)ccc1OC(C)C(=O)Nc1ccccc1N1CCOCC1 (configuration not stated) | / | 1.5 | -6 | 101
Cc1ccccc1C1CC(c2cccs2)Nc2nnnn21 (configuration not stated) | 0.94 | / | -1 | 99

In the list so far, these have a COOH group.
Below each SMILES: HSV augment, HSV augment primary fold, GALR2 ag, INS promoter inh, INS promoter inh cell count, PKD1 kinase inh, RGS16-Gao HTS
C[C@]12C=CC(=O)C=C1CC[C@@H]1[C@@H]2[C@@H](O)C[C@@]2(C)[C@H]1CC[C@]2(O)C(=O)COC(=O)CCC(=O)O
→ i, 0.94, 0.8, -62, 146, -11, 101
O=C(O)CCc1nc(-c2cccs2)no1
→ /, /, -3.2, /, /, 5, 100
O=C(O)CN1C2=NCCCN2c2ccccc21
→ i, 1, /, /, /, 1, 102
Cc1cccc2nc(CSc3ncccc3C(=O)O)cn12
→ i, 1, /, /, /, -1, 101
Cc1ccc(Nc2cnn(C34CC5CC(CC(CC(=O)O)(C5)C3)C4)c(=O)c2Cl)c(Cl)c1
→ i, 1, /, -11, 132, -1, 101
O=C(N[C@@H](Cc1ccc(O)cc1)C(=O)O)c1ccc(C(F)(F)F)cc1
→ i, 0.94, /, /, /, -1, 123
O=C(O)c1ccccc1-c1ccccc1C(=O)Nc1nccs1
→ i, 0.77, /, -25, 108, -3, 107

(cont.)
Below each SMILES: HSV augment, HSV augment primary fold, GALR2 ag, INS promoter inh, INS promoter inh cell count, PKD1 kinase inh, RGS16-Gao HTS
CCOC(=O)C(=CNc1ccc(Oc2cncc(Cl)c2)nc1)C(=O)OCC
→ i, 1, /, /, /, /, 100
Cc1ccc(C(=O)NCCCc2ccccc2)s1
→ i, 0.97, 0.5, -24, 118, 0, 114
Cc1nnsc1C(=O)N/N=C/c1c(F)cccc1Cl
→ i, 0.92, /, 50, 172, 1, 107
Cn1c(CCCNC(=O)c2cccs2)nc2ccccc21
→ i, 1.1, -1.5, -30, 97, -11, 100
CCN(C(=O)c1ccc2c(OC)n(CC)nc2c1)c1ccc(OC)cc1
→ i, 0.9, -2.6, /, /, -9, 101
C=C(C)CSc1nnc([C@@H]2CCCN2C(=O)OC(C)(C)C)o1
→ i, 0.84, -2.3, 38, 100, -4, 105
CC(C)(C)NC(=O)c1cnn2c1NC(c1ccc(F)cc1)CC2C(F)(F)F (configuration not stated)
→ i, 0.97, 1.0, /, /, -2, 114
CCOc1nc(NCCO)nc(Nc2cc(Cl)ccc2OC)n1
→ i, 0.97, /, -5, 102, -5, 94
O=Cc1cnc(N2CCCCC2)s1
→ i, 0.94, /, /, /, -3, 101
O=C1/C(=C/c2ccncc2)SC(=S)N1N1CCOCC1
→ i, 1, /, /, /, /, 99
N#Cc1c(Nc2ccccc2)s[nH]c1=O
→ i, 1.1, /, /, /, /, 98
O=C(Nc1ccc(S(=O)(=O)Nc2cnc3ccccc3n2)cc1)c1ccc(Br)o1
→ i, 0.83, 0.8, 11, 61, -13, 101
CC(C)CNC(=O)COC(=O)CCC(=O)c1ccc(F)cc1
→ i, 1, -1.3, 33, 89, -2, 104
COc1cc(C2NC(=S)NC3=C2CCc2ccccc23)cc(OC)c1OC (configuration not stated)
→ i, 0.95, -0.7, 13, 120, -4, 102
Fc1ccc(Oc2cnc3ccccc3n2)cc1
→ /, /, /, 62, 143, -7, 95
Nc1c(C(=O)c2cccs2)oc2ccccc12
→ i, 0.9, 1.4, /, /, 3, 90
CCNC(=S)N1CCN(S(=O)(=O)c2ccc(C)cc2)CC1
→ i, 1, /, 44, 132, -1, 100
COc1cc(C(=O)NCCc2ccc(F)cc2)c([N+](=O)[O-])cc1OC
→ i, 0.89, -0.1, -7, 139, -7, 118
Cc1cccn2c(=O)c3cc(C(=O)N(C)C)n(C)c3nc12
→ i, 1, 0.7, /, /, 11, 98
COc1cc(/C=C2\C(=O)ON=C2c2ccccc2)cc(OC)c1OC
→ i, 0.89, -0.5, 3, 116, -10, 89
O=C(NC12CC3CC(CC(C3)C1)C2)c1ccc(=O)oc1
→ i, 0.86, -1.8, /, /, 7, 100
Cc1cccc(NC(=O)COc2ccc(Br)cc2C)n1
→ i, 0.88, 0.2, 10, 60, 3, 31
Nc1nccc(-c2cccs2)n1
→ i, 1.1, /, /, /, 0, 99
CN(C)S(=O)(=O)c1cccc(NC(=O)COC(=O)/C=C/c2ccc(Br)o2)c1
→ i, 0.86, /, /, /, /, 101
CNC(=S)NNc1nc(C)cc(C)n1
→ i, 1, /, /, /, -1, 110
CCC(=O)NCCc1nc2ccccc2n1Cc1ccc(C)cc1
→ i, 0.97, 0.1, -37, 77, -7, 140
Cc1ccc(Sc2c(C)nn(C(=O)c3cccc(S(=O)(=O)N4CCOCC4)c3)c2C)cc1
→ i, 0.88, -3.3, 3, 66, -3, 85
O=S(=O)(c1ccc(NC(=S)N2CCN(c3ccccc3F)CC2)cc1)N1CCOCC1
→ i, 0.89, /, -43, 93, 0, 99
CCOC(=O)COc1nc(-c2ccccc2)cc(-c2ccco2)c1C#N
→ i, 0.97, /, /, /, /, 101
COc1ccc(CCNC(=O)CC(NC(=O)c2ccccc2Cl)c2ccccc2)cc1 (configuration not stated)
→ i, 1, -1.5, -1, 46, 0, 45
Cc1cc(F)c(F)c(C(=O)N2CCOCC2)c1Cl
→ i, 1, -1.8, -19, 89, 0, 103
CCc1ccccc1NNC(=O)CCc1ccccc1
→ i, 0.92, /, /, /, /, 101
O=C(C1CCN(C2CC(=O)N(c3cccc(Cl)c3)C2=O)CC1)N1CCCC1 (configuration not stated)
→ i, 0.85, -2.9, -7, 164, -1, 97
Cc1ccc2c(c1)c1c(n2CC2COC(C)(C)O2)C(=O)CCC1 (configuration not stated)
→ i, 0.91, -1.4, /, /, 5, 101
COc1ccc(C(=O)N2CCCCC2)cc1S(=O)(=O)Nc1cccc(C(=O)O)c1
→ i, 0.85, -2.0, 0, 78, 0, 99
Cc1c(C(=O)O)oc2ccc(S(=O)(=O)NC3CCCCCCC3)cc12
→ i, 0.87, -1.4, 56, 132, -3, 109
COc1cccc(/C=N/NC(=O)Cn2cnc3c2c(=O)n(C)c(=O)n3C)c1
→ i, 1.1, /, /, /, /, 104
CCCC1CC(CSC(=N)N)OC1=O (configuration not stated)
→ i, 0.84, -2.9, -22, 109, -5, 99
CCOC(=O)C1CCCN(C(=O)c2cc(-c3ccccc3)nc3ccccc23)C1 (configuration not stated)
→ i, 0.94, /, -31, 109, -7, 102
O=C(/C=C\c1ccco1)NC(=S)Nc1ccccc1O
→ i, 1.1, /, /, /, /, 104
COc1cc(SC)ccc1C(=O)NCCOc1ccc(C)c(C)c1
→ i, 0.97, -0.4, /, /, -9, 101
N=c1c(C(=O)NCc2ccco2)cc2c(=O)n3ccccc3nc2n1Cc1ccccc1
→ i, 0.7, 4.2, 0, 127, 0, 93
Cc1cc(C)cc(NC(=O)Nc2cc(-c3ccccc3)nn2C)c1
→ i, 0.92, /, /, /, /, 100
O=C(CCC1CCCN(C(=O)c2ccc3cc[nH]c3c2)C1)N1CCN(c2ccccn2)CC1 (configuration not stated)
→ i, 0.87, /, /, /, 3, 105
Cc1ccnc(N2CCC(C(=O)NC3CCCCCC3)CC2)n1
→ i, 1.1, -1.3, /, /, 4, 101
COCCN1Cc2cccc(C(=O)NCc3ccccc3OC)c2C1=O
→ i, 0.97, -0.9, -12, 109, -7, 97
COc1cc(C(=O)NCC(c2ccco2)N(C)C)cc(OC)c1OC (configuration not stated)
→ /, /, -0.4, /, /, 7, 106
CC(C)n1cnc2c(NCc3ccccc3)nc(NCc3ccccc3)nc21
→ i, 0.96, /, /, /, /, 98

Single records (already shown).
`O=C(/C=C\c1ccco1)NC(=S)Nc1ccccc1O` is entered as HSV augment = i; HSV augment primary fold = 1.1; GALR2 ag = /; INS promoter inh = /; INS promoter inh cell count = /; PKD1 kinase inh = /; RGS16-Gao HTS = 104
`Cc1cc(C)cc(NC(=O)Nc2cc(-c3ccccc3)nn2C)c1` is entered as HSV augment = i; HSV augment primary fold = 0.92; GALR2 ag = /; INS promoter inh = /; INS promoter inh cell count = /; PKD1 kinase inh = /; RGS16-Gao HTS = 100

Compound activity: PubChem BioAssay, several laboratories
